Screening results (PubChem)
LANA-H2B inh – blocks KSHV LANA binding to histone H2A/H2B; AID 2629; cell-free LANA-H2A/H2B peptide, fluorescence polarization; inhibition, % (test concentration not listed); Q9QR71; actives 0.6% (n = 320,000); in the data active means inhibition mostly above about 10%, no sharp cut-off; inactive means mostly below about 6.7%;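 further: stock transfer was 7.5 nL into about 10 µL; 0% = median of vehicle wells and 100% = median of positive control wells; one replicate is shown; the record names a cut of 25% in any replicate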
Beta cell apopt – beta cell apoptosis inhibition | protection from apoptosis, % (no concentration beside the values) | AID 435005 | actives 0.8% (n = 300,000) | INS-1E cytokine-induced death, ATP luminescence, 48 h; percent of positive-control rescue, neutral wells zero;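 active means all replicates at 75% or more, or half of them and the mean; inconclusive means half reach 75% but not the mean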;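 further: 0% = cytokine-treated negative control wells and 100% = positive control rescue; higher means more ATP so stronger rescue from cytokine killing; wells of about 40 µL received 100 nL stock; the first replicate is given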
T cruzi repl – T. cruzi replication inhibition | T. cruzi beta-gal in NIH3T3, luminescence, 90 h | inhibition, % (no concentration beside the values) | actives 1.4% (n = 300,000) | AID 1885;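 active means mean inhibition across valid replicates above about 55%, limit read from the data; inconclusive means mean below that limit but half or more replicates reach it; inactive means mean below it, under half of replicates reach it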;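 further: signal also drops with host cell toxicity which is not excluded here; 0% = plate median of DMSO wells and 100% = zero luminescence signal; higher percent means less beta-gal luminescence so fewer parasites; stock transfer was 50 nL into about 50 µL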
Ecoli rRNA inh – selective bacterial rRNA inhibition in E. coli; E. coli WT GFP vs humanized-ribosome RFP mutants, fluorescence, 24 h; active compounds read low; DMSO median 0, no signal -100; GFP signal change (wild-type ribosome), % (no concentration beside the values); actives 1.6% (n = 350,000); AID 720706;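 active means significant combined selectivity score with lowered wild-type GFP, culture density cut under 30%, mutant RFP and density less affected; inactive means any of these conditions unmet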; further: one replicate is shown; some compounds called inactive have numbers as strong as hits
ALR inh – human ALR oxidase inhibition via reduced H2O2. P55789. purified ALR, DTT oxidation, H2O2 HRP-luminol luminescence. inhibition, % (no concentration beside the values). actives 3.8% (n = 290,000);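 active means mean and each replicate at 75% or more; inconclusive means only one of the two met; inactive means neither met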;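 further: stock transfer was 7.5 nL into about 7.5 µL; 0% = neutral wells and 100% = wells with inactivated enzyme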
Target sequence (P55789 whole entry, looked up): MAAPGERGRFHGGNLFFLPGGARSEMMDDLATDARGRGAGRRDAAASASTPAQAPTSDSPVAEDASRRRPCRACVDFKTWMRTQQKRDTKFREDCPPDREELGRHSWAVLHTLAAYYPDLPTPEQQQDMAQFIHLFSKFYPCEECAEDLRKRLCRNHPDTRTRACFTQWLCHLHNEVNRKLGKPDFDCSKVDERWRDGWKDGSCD
Beta2AR agonist – human beta-2 adrenergic receptor agonism by FAP | actives 0.43% (n = 340,000) | Am2.2-beta2AR cells, FAP receptor internalization, flow cytometry; reference of the scale not given here | response, % (concentration not given with the values);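 active means response above a set limit, near 3 SD of response in nonfluorescent compounds, cut at about 42% in these data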;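 further: stock transfer was 100 nL into about 11 µL; a reference agonist was the positive control; negative values mostly stem from fluorescent compounds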
Target sequence (P07550 whole entry, looked up): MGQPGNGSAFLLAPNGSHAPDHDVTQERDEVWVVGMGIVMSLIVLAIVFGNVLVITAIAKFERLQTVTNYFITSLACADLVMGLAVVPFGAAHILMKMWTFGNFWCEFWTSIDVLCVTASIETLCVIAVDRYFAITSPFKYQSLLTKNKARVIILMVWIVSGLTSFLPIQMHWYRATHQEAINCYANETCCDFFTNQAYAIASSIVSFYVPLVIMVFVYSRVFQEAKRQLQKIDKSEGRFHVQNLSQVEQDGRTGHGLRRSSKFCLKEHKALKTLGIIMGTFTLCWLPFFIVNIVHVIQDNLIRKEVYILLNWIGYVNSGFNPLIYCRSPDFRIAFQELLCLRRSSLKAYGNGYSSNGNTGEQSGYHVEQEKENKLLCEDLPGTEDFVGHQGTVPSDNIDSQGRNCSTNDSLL
Calb FLC – affects C. albicans growth with fluconazole; C. albicans CaCi-2 (fluconazole-resistant clinical isolate) + fluconazole, Alamar Blue growth, 48 h; actives 0.57% (n = 300,000); growth inhibition, % (concentration not given with the values);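 active means most replicates above 75%; inconclusive means exactly half above 75%; inactive means most below 75%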;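 further: all wells also contain fluconazole at 8 µg/ml as a sub-toxic cotreatment; 0% = median of DMSO wells and 100% = median of geldanamycin control wells; wells of about 8 µL received 7.5 nL stock; the first replicate is given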
Bfl-1 A1 inh – inhibitors of the anti-apoptotic protein A1, read as caspase activation; AID 2462; caspase activation, % (no concentration beside the values); actives 0.066% (n = 330,000); MEF A1-2A-BIM cells, Caspase-Glo 3/7 luminescence, 3 h; percent of clofoctol response, vehicle zero;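 active means over half of replicate activation scores above 10%, or exactly half above 10 with the replicate mean above 10; inconclusive means replicate mean below 10 yet half the replicates above 10; inactive means over half of replicates below 10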;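 further: wells of about 30 µL received 50 nL stock; many hits fall short of the cut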
Ecoli rRNA inh OD600 – further read-out of Ecoli rRNA inh, marked with its call; OD600 change, %; measured here: OD600 growth;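 optical density of the mix in the first replicate; 0 = DMSO median and -100 = no signal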
Ecoli rRNA inh RFP – further read-out of Ecoli rRNA inh, marked with its call; RFP signal change, %; measured here: RFP humanized mutant strains;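 first replicate; 0 = DMSO median and -100 = no signal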
* marks the source's active call; other numbers are inactive results; ? = inconclusive; · = not tested or not shown; & = joins results of further samples. The list is partial; the hit share may differ from the screen's.

SMILES	LANA-H2B inh	Beta cell apopt	T cruzi repl	Ecoli rRNA inh	Ecoli rRNA inh OD600	Ecoli rRNA inh RFP	ALR inh	Beta2AR agonist	Calb FLC	Bfl-1 A1 inh
CC(=O)N(C)c1nnc(-c2ccccn2)s1	1.1	-0.5	-6.9	·	·	·	-4.3	-4.7	3.7	-1.2
Nc1ccc(C(=O)OCC(=O)NC2CCS(=O)(=O)C2)cc1[N+](=O)[O-] (centres undefined)	2.9	-5.1	-3.8	-2.3	5.5	7.9	-1.2	4.4	-6.4	0.6
CN(C)CCNc1nc2sc3c(c2c(=O)n1CCc1ccccc1)CCCCC3	-4.5	7.1	58.5*	·	·	·	60.5	10.3	13.7	0.9
COC(=O)[C@H]1C[C@@H]1[C@H](NC(=O)OCc1ccccc1)c1ccccc1	-0.4	-4.9	-12.6	-2.3	-6.0	-5.4	-1.6	1.9	-11.0	-0.8
O=C(Nc1ccon1)c1ccccc1Cl	2.1	1.5	-11.3	·	·	·	·	1.7	7.8	0.6
COc1ccc(NC(=O)c2cccc(Cn3cc(Br)cn3)c2)cn1	-1.0	-4.7	-2.5	·	·	·	-8.1	-6.8	-1.0	-0.7
CC(=O)/C=C\c1ccccc1OC(=O)c1cc2ccccc2oc1=O	-6.4	2.4	-18.0	2.9	-1.2	-0.9	49.4	-3.2	11.3	0.4
O=C(Nc1cccnc1)c1cc2cc(Br)ccc2oc1=O	·	·	-20.0	22.5	21.8	3.8	·	-8.5	2.2	·
O=C(NCc1ccc(Cl)cc1)C(=O)NCC1OCCN1C(=O)c1ccc(Cl)cc1 (centres undefined)	-4.5	-3.0	7.6	2.9	2.4	1.2	·	-6.8	23.9	0.2
Cc1nn(CC(=O)Nc2ccc(N3CCOCC3)cc2)c(C)c1[N+](=O)[O-]	1.7	2.4	·	0.8	7.9	1.1	14.6	2.2	·	0.6
CCN(CC(=O)Nc1ccc(OC(F)F)cc1)C1CCCCC1	1.2	0.0	-0.7	5.5	-0.5	-0.3	-9.9	-1.4	-7.6	0.6
Cc1ccc2nc(-c3ccccc3)c(CN3CCN(c4ccccc4F)CC3)n2c1	-7.8	11.7	52.4	·	·	·	-3.7	-6.0	-0.3	0.2
COc1ccc([N+](=O)[O-])cc1NC(=O)CSc1nc(C)cc(C)n1	-0.4	2.1	-25.8	·	·	·	·	-9.1	6.4	-0.3
Fc1c(F)c(-n2nnc3ccccc32)c(F)c(F)c1Cl	2.6	2.6	-7.6	-5.2	-2.9	-2.7	·	13.1	-5.7	1.1
COc1cccc(/C=C2\SC(=O)N(CCC(=O)NNC(=O)c3cccc(Cl)c3)C2=O)c1	1.1	-1.3	12.6	12.3	11.3	-12.1	-4.1	-0.5	-26.5	-0.1
COC(=O)c1cn(NC(=O)c2ccc([N+](=O)[O-])cc2Cl)c(=O)c2ccccc12	-1.4	-4.5	-47.1	18.1	7.4	-1.1	-2.8	-0.1	-9.2	-0.1
CC(C)OC(=O)c1ccc(NC(=O)c2ccccc2)cc1	-2.3	2.9	1.6	·	·	·	-2.8	8.6	-13.2	-3.7
O=C(CSc1ncccc1C(=O)O)c1ccccc1	-1.1	0.2	-6.5	·	·	·	-1.4	4.0	-15.1	-1.0
CC(=O)c1ccc(N2CCN(S(=O)(=O)c3cccc4nonc34)CC2)cc1	-0.2	3.6	-3.3	1.6	-3.4	1.9	2.6	5.8	0.8	0.9
COc1ccc(C(=O)NCC(=O)N/N=C/c2ccc(C)o2)cc1OC	-6.5	-9.6	0.0	·	·	·	-7.5	-4.1	-2.2	0.0
CCOc1cc(C(=O)N2CCc3cc(OC)c(OC)cc3C2)ccc1OC(F)F	-3.0	18.8	·	·	·	·	-15.0	·	·	0.2
COc1ccccc1Cn1c(/C=C/c2ccccc2)nc2ccccc21	·	15.2	31.3	·	·	·	·	-19.8	2.8	-0.6
C(#CCN1CCOCC1)COCCOC(c1ccccc1)c1ccccc1	3.3	-5.3	-14.7	·	·	·	-30.5	-5.4	-4.6	0.8
Clc1ccccc1OCc1nnc(-c2ccccc2)o1	2.9	0.9	-6.8	2.0	-2.5	9.5	-2.7	0.7	-13.1	-1.1
Cc1ccc(N2CC(C(=O)Nc3ccccc3C(=O)N3CCOCC3)CC2=O)cc1 (centres undefined)	-0.3	-0.5	-0.3	2.6	13.6	-0.2	-5.6	-3.0	·	-0.5
CC(=O)N1c2ccc(F)c(F)c2C[C@H]1C	-7.9	-2.1	·	13.3	9.8	-4.4	-4.0	5.1	·	1.4
COc1c(C)cccc1C(=O)NCc1ccc2c(c1)OCO2	-1.7	-6.2	1.5	10.8	5.8	1.0	11.4	-1.6	2.2	-0.3
O=C(N/N=C/c1ccc(OC(=O)c2ccc([N+](=O)[O-])cc2)cc1)c1cccnc1	-1.2	1.3	6.9	7.6	7.7	0.7	-2.9	3.1	-6.0	-8.8
COc1cc(C(=O)O/N=C2\C=CC(=O)C(C)=C2)cc(OC)c1OC	1.4	65.3	13.0	·	·	·	97.7*	2.0	21.4	-0.4
Cc1ccc(C)c(N2CCN(C(=O)c3cc(S(=O)(=O)N4CCOCC4)cn3C)CC2)c1	-1.5	-1.7	5.9	-14.0	-29.6	3.5	-4.2	-3.5	5.0	0.0
COc1cccc(/C=N/Nc2nc3ccccc3n3cnnc23)c1O	5.2	119.2*	13.7	·	·	·	27.7	108.9*	-3.2	-1.0
CC(=O)c1cccc(NC(=O)c2cc(-n3cnnc3)ccc2Cl)c1	4.5	·	1.8	·	·	·	-3.0	4.7	12.4	0.7
CCC1CCCCN1C(=O)CSc1nc(N)c(NC(=O)c2ccc(OC)c(OC)c2)c(=O)[nH]1 (centres undefined)	-0.5	-5.3	-21.3	4.8	7.0	-8.9	-3.6	-4.8	2.4	-0.5
COc1ccc(N(CC(=O)Nc2nc3ccc(C)cc3s2)S(=O)(=O)c2c(C)nn(C)c2C)cc1	7.5	8.8	6.0	-0.5	-7.6	8.6	-4.7	13.2	-6.0	1.2
O=S(=O)(NCCC1CC1(Cl)Cl)c1ccc(Cl)cc1 (centres undefined)	0.9	0.2	-5.7	-47.9*	-25.4*	-8.1*	26.9	-3.1	-14.5	-0.3
O=C1Nc2cc(Cl)c(Cl)cc2N(O)N1c1ccc(Cl)cc1	9.6	-5.4	3.2	-10.3	-2.6	-6.2	5.8	10.9	-21.2	0.7
CCOc1ccc(N2C(=O)C3ON(c4ccccc4)C(c4cccs4)C3C2=O)cc1 (centres undefined)	-3.9	-5.4	-0.4	-7.8	-9.9	-0.7	12.2	-0.3	9.4	0.0
COc1ccc([N+](=O)[O-])cc1N/C(=N/S(=O)(=O)c1ccccc1)c1ccccc1	-6.3	-1.6	14.8	-2.7	-3.4	2.0	-36.7	5.3	-3.2	-0.6
Cc1ccc2c(c1)c1c3n2CCN(C=O)C3CCC1 (centres undefined)	2.5	·	-1.4	-21.0	-29.8	-0.9	-5.8	4.2	-3.9	0.9
COc1ccc(CN2C(=O)CSC2c2ccccn2)cc1 (centres undefined)	7.7	-3.1	2.2	2.1	1.1	3.2	7.1	-5.9	1.7	0.8
COc1ccc(CCNC(=O)C2=COCCO2)cc1	-0.8	-1.2	1.4	·	·	·	-6.1	-3.1	-4.1	3.2
COc1cccc2c3c(c(=O)[nH]c12)CCC(C)(C)O3	2.4	3.5	-2.9	·	·	·	97.6*	-6.0	17.3	0.2
COc1ccccc1NC(=O)Nc1nc(CC(=O)Nc2cc(F)ccc2F)cs1	-1.1	-4.2	1.4	-4.9	-39.2	2.2	·	14.8	1.2	-0.1
O=C(Nc1ccc(N2CCOCC2)cc1)C1CCN(C(=O)OCc2ccccc2)CC1	0.7	2.4	10.2	3.9	-0.6	1.2	·	15.2	-8.8	-0.3
CCCCn1c(N)c(N(CCOC)C(=O)c2cc(=O)[nH]c3ccccc23)c(=O)[nH]c1=O	-5.1	-2.8	·	10.9	17.2	-1.7	-3.7	0.2	·	0.5
CCCCCCCCNC1=CC(=O)CC(C)(C)C1	-1.1	-1.1	18.7	8.0	-9.4	5.2	-3.2	-2.4	1.5	-0.3
O=C(CC1CCCC1)NCCS(=O)(=O)N1CCN(c2ccc(F)cc2)CC1	-1.8	·	-24.5	5.7	8.3	-0.6	-11.0	0.0	-5.6	-0.1
O=S(=O)(NCC1CC1)c1ccc(F)c(Cl)c1	-1.1	2.9	2.4	8.9	11.5	1.1	-4.0	-9.2	-6.3	0.4
Nc1ccc(C(=O)O)c(O)c1	-4.7&-19.4&-4.9&0.9	-2.2&-5.4&6.6	15.5&-16.9	-4.2&0.2	14.0&0.8	-1.4&-6.2	-3.6&-12.1	2.1&-0.3&-5.0	·	0.3&0.3&0.5
Cc1c(/C=N/n2cnnc2)c2ccccc2n1C	-0.9	-2.9	-13.7	·	·	·	-15.3	5.1	?	-0.2
C=CCNC(=S)N1CCN(c2ccc([N+](=O)[O-])cc2)CC1	0.3	1.3	-9.3	2.1	5.9	2.1	-7.9	-13.3	4.9	1.0
Cc1ccc(OCc2nnc(SCC(=O)CC(=O)Nc3ccccc3)o2)cc1	17.3*	6.6	4.4	·	·	·	-11.2	26.0	1.6	0.3
Nc1c(C=C2C=CC(=O)C=C2)c(=O)nc2sc(CC(=O)N3CCCC3)nn12	5.8	2.4	-23.1	0.9	3.3	-0.3	-8.6	2.9	0.0	0.2
Cc1cccc(NC(=O)c2ccccc2OCC(=O)c2ccc(F)cc2)c1	2.8	6.2	14.6	6.9	3.4	-0.5	-2.9	-3.4	-6.4	-0.1
CCN(CC)S(=O)(=O)c1ccc2[nH]c(=O)cc(C(=O)Nc3ccc(C)c(S(=O)(=O)N(CC)CC)c3)c2c1	-2.4	16.4	-4.8	·	·	·	-2.3	2.4	15.0	-1.5
O=C(O)c1ccc(-c2ccco2)n1Cc1ccccc1	-5.3	5.0	-11.5	·	·	·	99.4*	7.4	-5.8	-0.4
CN1C(=O)c2cccc(NCCCCCCN3C(=O)c4ccccc4C3=O)c2C1=O	8.9	14.2	21.4	·	·	·	-6.4	0.8	-9.1	0.3
COc1ccc(C(CNC(=O)COc2ccccc2OC)N(C)C)cc1OC (centres undefined)	-6.0	-2.6	-1.3	·	·	·	7.0	-7.6	-4.7	0.3
CCCCn1c(N)c(N(CC(C)C)C(=O)CSc2n[nH]c(-c3ccc(C)cc3)n2)c(=O)[nH]c1=O	3.3	4.5	-16.3	3.1	8.7	5.7	-4.9	1.3	-4.1	-1.1
C/C(CC(=O)Nc1ccc(Cl)c(C(F)(F)F)c1)=N\NC(=O)c1cccc(O)c1	-3.0	5.0	-41.6	·	·	·	4.4	-8.5	?	0.5
COc1cc(Br)c(C(=O)c2nccc3cc(OC)c(OC)cc23)cc1OC	-0.9	-11.0	26.6	-7.5	-7.1	-2.4	-154.4	-4.3	1.3	-1.4
